Compound activity: PubChem, ICCB-Longwood Screening Facility, Harvard Medical School
GIV-Gai inh: inhibitors of GIV GBA-motif binding to rat Galpha-i3 | P08753 | Galpha-i3/FITC-GIV peptide fluorescence polarization, 90 min; hits give low values; scaled: aluminum fluoride 0%, vehicle 100% | percent of control (FP), % (concentration not given with the values) | 210,000 tested, 0.42% active;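 active means replicate mean at 85% of control or lower, very high polarization wells dropped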;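 further: wells of about 15 µL received 100 nL stock; the first replicate is given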
Target sequence (P08753 whole entry, looked up): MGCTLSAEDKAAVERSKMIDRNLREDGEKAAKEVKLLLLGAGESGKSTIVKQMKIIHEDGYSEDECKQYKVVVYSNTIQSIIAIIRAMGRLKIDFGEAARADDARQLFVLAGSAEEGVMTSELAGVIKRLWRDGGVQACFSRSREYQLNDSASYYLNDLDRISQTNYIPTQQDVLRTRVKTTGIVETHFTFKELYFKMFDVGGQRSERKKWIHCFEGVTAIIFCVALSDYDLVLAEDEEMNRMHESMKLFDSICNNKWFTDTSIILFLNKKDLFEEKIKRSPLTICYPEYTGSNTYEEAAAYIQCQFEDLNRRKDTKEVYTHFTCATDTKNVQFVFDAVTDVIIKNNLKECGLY
Sa growth 42C: S. aureus growth inhibition; S. aureus RN4220 growth, OD600, 20 h, 42 °C; hits give low values; relative growth, % (concentration not given with the values); 170,000 tested, 0.53% active;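 active means growth at 42 °C up to 50% and 20 or more points under that at 30 °C, or under 10% at both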;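 further: 300 nL library stock went into each well; scaled to the means of positive and negative controls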
HCMV UL50-53 inh: cytomegalovirus nuclear egress complex inhibition | 190,000 tested, 0.15% active | HTRF UL50-UL53 interaction, normalized percent inhibition | AID 1918969 | inhibition, % (test concentration not listed);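 active means both replicates at 50% or more, plus weaker picks with an unusually low signal ratio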;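 further: stock transfer was 100 nL into about 20 µL; 0% = negative control wells and 100% = wells with untagged competitor protein; inactives centre near -12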
Sa growth 42C second temp: also measured in Sa growth 42C; calls as there; relative growth, %; measured here: growth at 30 °C;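 optical density after 20 h as mean of two plates; 100% = untreated growth and lower means inhibition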
The depositor's hits bear a star; · = no result given; & = joins results of further samples.

SMILES	GIV-Gai inh	Sa growth 42C	Sa growth 42C second temp	HCMV UL50-53 inh
Cc1cc(C)c(S(=O)(=O)Nc2ccc3nc(N4CCN(C)CC4)cc(C(=O)O)c3c2)c(C)c1	101	·	·	-40
CC(C)(C)C(=O)N1CCCC1c1ccc(F)cc1 (stereo not drawn)	105	·	·	5
Cc1c(C(=O)OC2CCCCCC2)[nH]c2c1C(=O)CC(c1ccccc1)C2 (stereo not drawn)	106	102	90	-8
COc1ccc(-n2nc(C(=O)NCC(=O)NC3CCCC(C)C3C)c3ccccc3c2=O)c(OC)c1 (stereo not drawn)	99	108	85	-2
COc1ccccc1/C=C1\Cc2ccccc2C1=O	95	114	99	-16
Cc1ccc(Cl)cc1N1CCN(C(=O)CCc2nnc3c4cc(-c5ccccc5)nn4ccn23)CC1	112	·	·	-10
COc1ccc(C2CC(=O)Nc3c2c(C)nn3-c2nc(C)cc(C)n2)cc1 (stereo not drawn)	108	·	·	5
COc1cc(C(CC(=O)Nc2ccc(C)c(F)c2)N2Cc3ccccc3C2=O)cc(OC)c1OC (stereo not drawn)	102	128	94	·
C=CCNc1ncccc1-c1nc(-c2ccc(C)cc2)no1	100	·	·	-20
O=c1c2oc3ccccc3c2ncn1Cc1ccccc1	108&110	106	85	-6&-21
Cc1cccc(NC(=O)Cn2nc3c4cc(-c5ccccc5)nn4ccn3c2=O)c1	106	·	·	-18
Cc1nnc(N2C(=O)C(O)=C(C(=O)c3cccs3)C2c2ccccc2F)s1 (stereo not drawn)	-9.4*	100	83	-61
CCOc1ccc2nc(N3CCCC(C(=O)Nc4ccc(CC)cc4)C3)sc2c1 (stereo not drawn)	105	118	88	-34
COc1ccc(NC(=O)CN2CCN(Cc3ccc(F)cc3)S2(=O)=O)cc1Cl	104	97	90	·
CCS(=O)(=O)N1CCc2cc(C(=O)NCCc3ccccc3)ccc21	101	115	91	-1
Cc1ccnc(NC(=O)COc2ccc(Cl)cc2Cl)n1	104	95	78	6
Cc1nn(-c2cc(N3CCCCC3)ncn2)c(C)c1CCC(=O)N1CCCC1	108	·	·	24
Cc1cc(-c2ccc(S(=O)(=O)Nc3ccc(Cl)cc3C)cc2)on1	103	95	94	·
CCOc1cc2[nH]c(=O)n(CCCC(=O)N3CCN(c4cccc(Cl)c4)CC3)c(=O)c2cc1OCC	101	90	85	·
CCOc1cc2c(cc1OCC)C1C(C(=O)NCCCN3CCN(CC)CC3)c3ccccc3C(=O)N1CC2 (stereo not drawn)	104	97	90	-6
CCC(C(=O)N1CCC(C)CC1)c1ccccc1 (stereo not drawn)	103	110	94	-6
CC1CC(C)CN(S(=O)(=O)c2ccc(F)c(F)c2)C1 (stereo not drawn)	·	86	83	-20
O=C(O)CC1(Cc2nc(-c3cccs3)no2)CCCC1	103	153	85	-3
CCOC(=O)N/N=C/c1cccc(Br)c1	·	89	87	-52
COc1cc(/C=C2\C(=O)NC(=O)N(c3ccc(Cl)cc3)C2=O)cc(Cl)c1O	123	·	·	-29
COc1ccc(-c2nc3ccccc3s2)cc1NC(=O)c1cccc(F)c1	100	115	83	·
CC(=O)n1c(C)cc(=O)[nH]c1=O	·	84	94	4
CCN(CC(=O)Nc1ccccc1Br)C1CCCCC1	·	54	51	-22
O=C(Cc1ccc(F)cc1)Oc1ccccc1F	·	73	84	-2
COc1ccc2nc3[nH]nc(NC(=O)Cc4ccccc4OC)c3cc2c1	100	98	91	·
Nc1nonc1C(=O)NCCNCc1ccc(Cl)c(Cl)c1	109	106	85	-8
Cc1cc(NC(=O)c2sc3nc(-c4ccccc4)cc(C(F)(F)F)c3c2N)no1	123	92	85	-37
COc1ccc(-c2ccc(CCC(=O)O)n2-c2cc(Cl)ccc2O)cc1	112	105	84	-36
CCCc1ccc(-c2nc(-c3ccc(C(F)(F)F)cn3)no2)cc1	101	107	95	1
CCC(C)NC(=O)c1ccc2c(c1)N=C(C)c1cc(Cl)ccc1S2 (stereo not drawn)	102	106	91	·
Cc1nc(N2CCOCC2)c2c(C)c(C(=O)Nc3ccc4c(c3)OCO4)sc2n1	106	·	·	-9
COc1ccc(CNC(=O)c2ccc3c(c2)NC(=O)C2CCCCN32)cc1 (stereo not drawn)	102	·	·	-24
COC(=O)C1=C(C)N(c2ccccc2F)C(=O)/C1=C\c1cccc(OC)c1O	108	99	96	·
O=C(CCc1ccc(-c2ccccc2)o1)Nc1ccccc1C(=O)NC1CC1	·	76	89	-24
O=C(NCCc1csc2nc(-c3ccc(F)cc3)nn12)c1cccc(C(F)(F)F)c1	103	89	90	·

Some of the entries above in a different format.
Each structure is followed by: GIV-Gai inh	Sa growth 42C	Sa growth 42C second temp	HCMV UL50-53 inh
- O=C(O)CC1(Cc2nc(-c3cccs3)no2)CCCC1
→ 103	153	85	-3
- O=C(CCc1ccc(-c2ccccc2)o1)Nc1ccccc1C(=O)NC1CC1
→ ·	76	89	-24
- Cc1nnc(N2C(=O)C(O)=C(C(=O)c3cccs3)C2c2ccccc2F)s1 (stereo not drawn)
→ -9.4*	100	83	-61

Remaining list, next part:
SMILES	GIV-Gai inh	Sa growth 42C	Sa growth 42C second temp	HCMV UL50-53 inh
CCC1C(=O)NCCN1C(=O)c1ccc(C)c(I)c1 (stereo not drawn)	107	94	87	-8
CCN(CC)CCOC(=O)c1ccc(NC(=O)CCN2C(=O)/C(=C/c3ccc(F)cc3)SC2=S)cc1	102	·	·	-43
Cc1cccc(Cc2c(C)nc3nc(SCc4ccccc4F)nn3c2C)c1	100	114	97	·
Cc1ccc(Nc2cc(C(=O)O)c3ccccc3n2)c(C)c1	103	96	91	-17
O=C(NC1CCCc2ccccc21)c1ccc2c(=O)n3c(nc2c1)CCCCC3 (stereo not drawn)	108	108	70	6
Cc1ccc2[nH]cc(CCNC(=O)CC3CCN(C(=O)NC4CCCCC4)CC3)c2c1	101	·	·	-35
CCOC(=O)c1c(S(=O)(=O)N2CCCC(C(=O)Nc3ncccc3C)C2)c(C)n(C)c1C (stereo not drawn)	104	111	86	·
Cc1ccc2[nH]c(=O)c3cc(C(=O)N4CCN(c5ccccc5F)CC4)sc3c2c1	108	103	89	-31
Cn1c(=O)oc2cc(S(=O)(=O)N3CCN(c4ccccc4)CC3)ccc21	96	·	·	2
COc1ccccc1CNC(=O)c1nnc(Cc2ccc(F)cc2)o1	102	110	87	·
N#CCC(Cc1ccccc1)c1ccc2c(c1)OCO2 (stereo not drawn)	101	99	92	-13
CCOc1ccc(NC(=O)CCc2nc3sc4c(c3c(=O)[nH]2)CCC(C(C)(C)C)C4)cc1 (stereo not drawn)	97	·	·	-9
CCC(Oc1ccccc1)C(=O)Nc1ccc2oc(-c3cccc(C)c3)nc2c1 (stereo not drawn)	104	·	·	-6
O=C(CSc1ccc(F)cc1)N1CCCC1	104	105	91	-7
Cc1cc(NS(=O)(=O)c2ccc(NC(=S)NCc3ccccc3)cc2)no1	101	81	99	-7
CN1CCC(NC(=O)c2cc(Br)ccc2Cl)CC1	104	117	105	1
O=C(c1cccc(COCC(F)(F)C(F)F)c1)N1CCN(c2ccccc2)CC1	107	93	85	-24
Cc1ccc2nc(CCCC(=O)O)[nH]c2c1	102	116	92	·
Cc1cccc2c1NC(=O)C(c1ccccc1)C2=O (stereo not drawn)	100	107	93	-2
CCOc1ccc2c(c1)sc1c(C)cc(=O)oc12	115	89	93	·
CCCNc1c(N)n(-c2ccccc2)c(=O)[nH]c1=O	105	99	87	-33
Cc1ccc(NC(=O)CC(=O)Nc2ccc3nc4n(c(=O)c3c2)CCCCC4)cc1F	100	·	·	-17
O=C(NC1CCCCC1)C1c2cccn2CC(=O)N1CCCN1CCCC1=O (stereo not drawn)	99	93	91	·
O=C(NCc1ccc(F)cc1)c1nnc(Cc2cccc(F)c2)o1	100	107	111	-1
CCOC(=O)Oc1cc2oc(=O)sc2cc1Cl	102	4.9*	2.4*	1
O=C1NCCN1Cc1ccccc1	105	82	79	·
Cc1ccccc1C(OCCN(C)C)c1ccccc1 (stereo not drawn)	95	91	92	-10&-2&3&-24&-47&-12
COC(=O)c1sccc1NC(=O)Cn1ncc2c1-c1cc(C)ccc1OC2	101	89	84	1
CC(=O)Nc1ccc(NC(=O)CN2C(=O)CC(c3ccco3)Sc3ccccc32)cc1 (stereo not drawn)	104	97	79	-33
CCOC(=O)c1nn(-c2ccc(F)cc2)c(=O)c2c(NC(=O)c3cc(OC)c(OC)c(OC)c3)scc12	103	125	90	5
Cc1cc(C)c(C(=O)Nc2ccccc2C)c(SCC(=O)Nc2sc3c(c2C#N)CCCC3)n1	103	·	·	0
CSc1ncc(Cl)c(C(=O)N(Cc2ccccc2)c2ccccn2)n1	103	127	83	·

26 entries from above in another layout:
Under each structure – GIV-Gai inh	Sa growth 42C	Sa growth 42C second temp	HCMV UL50-53 inh
CCOC(=O)c1c(S(=O)(=O)N2CCCC(C(=O)Nc3ncccc3C)C2)c(C)n(C)c1C (stereo not drawn)
  104	111	86	·
Cc1ccc2[nH]c(=O)c3cc(C(=O)N4CCN(c5ccccc5F)CC4)sc3c2c1
  108	103	89	-31
Cn1c(=O)oc2cc(S(=O)(=O)N3CCN(c4ccccc4)CC3)ccc21
  96	·	·	2
COc1ccccc1CNC(=O)c1nnc(Cc2ccc(F)cc2)o1
  102	110	87	·
N#CCC(Cc1ccccc1)c1ccc2c(c1)OCO2 (stereo not drawn)
  101	99	92	-13
CCOc1ccc(NC(=O)CCc2nc3sc4c(c3c(=O)[nH]2)CCC(C(C)(C)C)C4)cc1 (stereo not drawn)
  97	·	·	-9
CCC(Oc1ccccc1)C(=O)Nc1ccc2oc(-c3cccc(C)c3)nc2c1 (stereo not drawn)
  104	·	·	-6
O=C(CSc1ccc(F)cc1)N1CCCC1
  104	105	91	-7
Cc1cc(NS(=O)(=O)c2ccc(NC(=S)NCc3ccccc3)cc2)no1
  101	81	99	-7
CN1CCC(NC(=O)c2cc(Br)ccc2Cl)CC1
  104	117	105	1
O=C(c1cccc(COCC(F)(F)C(F)F)c1)N1CCN(c2ccccc2)CC1
  107	93	85	-24
Cc1ccc2nc(CCCC(=O)O)[nH]c2c1
  102	116	92	·
Cc1cccc2c1NC(=O)C(c1ccccc1)C2=O (stereo not drawn)
  100	107	93	-2
CCOc1ccc2c(c1)sc1c(C)cc(=O)oc12
  115	89	93	·
CCCNc1c(N)n(-c2ccccc2)c(=O)[nH]c1=O
  105	99	87	-33
Cc1ccc(NC(=O)CC(=O)Nc2ccc3nc4n(c(=O)c3c2)CCCCC4)cc1F
  100	·	·	-17
O=C(NC1CCCCC1)C1c2cccn2CC(=O)N1CCCN1CCCC1=O (stereo not drawn)
  99	93	91	·
O=C(NCc1ccc(F)cc1)c1nnc(Cc2cccc(F)c2)o1
  100	107	111	-1
CCOC(=O)Oc1cc2oc(=O)sc2cc1Cl
  102	4.9*	2.4*	1
O=C1NCCN1Cc1ccccc1
  105	82	79	·
Cc1ccccc1C(OCCN(C)C)c1ccccc1 (stereo not drawn)
  95	91	92	-10&-2&3&-24&-47&-12
COC(=O)c1sccc1NC(=O)Cn1ncc2c1-c1cc(C)ccc1OC2
  101	89	84	1
CC(=O)Nc1ccc(NC(=O)CN2C(=O)CC(c3ccco3)Sc3ccccc32)cc1 (stereo not drawn)
  104	97	79	-33
CCOC(=O)c1nn(-c2ccc(F)cc2)c(=O)c2c(NC(=O)c3cc(OC)c(OC)c(OC)c3)scc12
  103	125	90	5
Cc1cc(C)c(C(=O)Nc2ccccc2C)c(SCC(=O)Nc2sc3c(c2C#N)CCCC3)n1
  103	·	·	0
CSc1ncc(Cl)c(C(=O)N(Cc2ccccc2)c2ccccn2)n1
  103	127	83	·

Rows were taken by chance. About 0.8% of those tested had a hit in this group.
